# Source: PubChem BioAssay
# StopGo FLuc – lowers the firefly signal of an FMDV 2A StopGo reporter | 0.23% of 120,000 active | HEK cells with a luciferase reporter of 2A StopGo recoding | Potency, µM (top dose mostly 57.5 µM), for inactives: at the highest dose signal change, negative = less light; active = well fitted falling curve with a large enough effect; inconclusive = small, poorly fitted or top-dose-only effect; inactive = no such curve, though single readings can be large or run the other way; further: nearly all actives have a fitted effect of over 60% in size; overnight with compound
# 2A Renilla – lowers the Renilla signal of an FMDV 2A StopGo reporter | Potency, µM (doses to about 57.5 µM), for inactives: top-dose signal change, negative = less light | 0.32% of 120,000 active | HEK cells with a luciferase reporter of 2A StopGo recoding | AID 1745857; active means well fitted falling curve with a large enough effect; inconclusive means small, poorly fitted or top-dose-only effect; inactive means no such curve, though single readings can be large or run the other way; further: nearly all actives have a fitted effect of over 55% in size; overnight with compound
# Active calls of the source: *; ? = inconclusive; [ ] = another dose, or the depositor's remark. On the % scale 0 is the no-effect control and ±100 the full control effect; potency means the concentration at half of the fitted maximal effect. Only part of the results is shown; the hit share may differ from the screen's.
No.	mol	StopGo FLuc	2A Renilla
1	Cc1ccc(S(=O)Cc2ccc(C(=O)NC3CCCCCC3)o2)cc1 (stereo not given)	-9.3%	2.3%
2	Cc1ccc(Nc2nc(C)c(NC(=O)c3ccc(C)cc3)c(Nc3ccc(C)cc3)n2)cc1	-0.6%	78.6%[activator]
3	CCOc1ccccc1NC(=O)Cn1cc(C(=O)c2cccc(OC)c2)c(=O)c2ccc(C)nc21	2.0%	5.0%
4	Cc1ccc(-n2nnnc2C2(NC3CCCCC3)CCCC2)cc1	7.0%	216.5%[activator]
5	COc1ccccc1N1CCN(C(=O)c2cn(C)c3ccc(S(=O)(=O)N4CCOCC4)cc3c2=O)CC1	-14.1%	-3.0%
6	Cc1cccc(C(=O)Nc2cc3c(cc2N2CCCCC2)n(C)c(=O)n3C)c1	-8.1%	-7.8%
7	COc1cc(/C=N/O)cc(I)c1OCC(=O)Nc1ccc(C)cc1	-13.2%	21.2%
8	COc1cc(CN(C(=O)c2ccc(Cl)cc2)C2CCS(=O)(=O)C2)cc(OC)c1OC (stereo not given)	8.7%	9.7%

# Compound profiles (already shown). Values in the order: StopGo FLuc, 2A Renilla
# `Cc1ccc(Nc2nc(C)c(NC(=O)c3ccc(C)cc3)c(Nc3ccc(C)cc3)n2)cc1` across the screens: -0.6%, 78.6%[activator]
# `Cc1cccc(C(=O)Nc2cc3c(cc2N2CCCCC2)n(C)c(=O)n3C)c1` across the screens: -8.1%, -7.8%

# (more compounds)
No.	mol	StopGo FLuc	2A Renilla
9	CCOc1cc(/C=C/c2nc3ccc(OC)cc3s2)ccc1O	70.7%[activator]	33.1%[activator]
10	CC1CCN(Cc2c(O)ccc3c(=O)c(Oc4ccccc4Cl)c(C(F)(F)F)oc23)CC1	0.3%	-0.1%
11	CCCCNC(=O)Cn1c(=O)cc(C)c2c(C)nn(-c3ccc(CC)cc3)c21	-9.0%	-10.0%
12	COc1ccc(NCc2cc3cc4c(cc3n(CC(=O)Nc3ccc(C)cc3)c2=O)OCO4)cc1	12.2%	-6.4%
13	COc1cc(Cl)c(C)cc1Nc1nc2ccccc2nc1NS(=O)(=O)c1ccccc1	348.5%[activator]	-9.7%
14	COc1ccc(C(=O)Nc2ccc(C)c3ncccc23)c(OC)c1	135.8%[activator]	-1.1%
15	O=C(NC1CCCCC1)/C(=C/c1ccco1)c1ccccc1	1.9%	30.3%[activator]
16	Cc1cccc(CN2CCCN(c3cccc(C(=O)N4CCN(c5ccccc5)CC4)c3)C2=O)c1	?	10µM*
17	COc1cccc(C(=O)Nc2cccc3cccnc23)c1	183.5%[activator]	19.4%
18	Cc1ccc(C)c(CN2C(=O)c3ccccc3S(=O)(=O)c3ccc(C(=O)N4CCN(c5ccccc5F)CC4)cc32)c1	0.0%	19.4%
19	COc1cc(NC(=O)CNS(=O)(=O)c2cccs2)cc(OC)c1OC	-2.6%	4.3%
20	Cc1ccc(-c2nc3ccccc3n2Cc2cccc(F)c2)o1	63.7%[activator]	-0.5%
21	COc1ccc2c(C)c(CC(=O)NCCc3ccccc3F)c(=O)oc2c1C	3.1%	-4.1%
22	C(=C\c1ccccc1)/C=N/Nc1nc(Nc2ccccc2)nc(N2CCCCC2)n1	10.2%	8.2%
23	O=C(COC(=O)C12CC3CC(CC(O)(C3)C1)C2)Nc1ccc([N+](=O)[O-])cc1Cl	29.5%	3.4%
24	CC(=O)[C@@]1(O)CC[C@H]2[C@@H]3CCC4=CC(=O)CC[C@]4(C)[C@H]3CC[C@@]21C	-9.5%[11.5 µM]	3.6%
25	Cc1c(Cl)cccc1N1CC(c2nc3ccccc3n2Cc2ccccc2F)CC1=O (stereo not given)	-7.2%	19.6%
26	CCc1cccc(C)c1NC(=O)c1cc(C)nc2ccccc12	-19.4%	?
27	COc1ccc(NC(=O)c2c(C)oc3ccc(O)c(CN4CCC(C)CC4)c23)cc1	4.1%	-5.5%
28	CCCNC(=O)NC(=O)COC(=O)c1cc(C)nc2ccccc12	-5.1%	-2.8%
29	NC(=S)N/N=C1/CCCCC1c1ccccn1 (stereo not given)	28.3%	12.9%
30	O=C(NCC1(N2CCCCC2)CCCCC1)c1ccc(NC(=O)c2cccs2)cc1	0.0%	7.2%
31	S=C(NCCc1cccs1)Nc1ccc(Cl)cc1Cl	86.5%[activator]	295.3%[activator]
32	COc1ccccc1N1CCN(C(=O)C2CCN(S(=O)(=O)c3cccc4nonc34)CC2)CC1	-1.8%	10.4%
33	Cc1ccccc1COC(=O)/C=C/c1ccc2ccccc2n1	0.0%	-18.7%
34	Cc1cc(NC(=O)C(C)C)cc(-c2nc3ncccc3o2)c1O	-13.1%	-3.9%
35	Cc1ccc(C)c(NC(=O)Cn2c(=O)n(CCCS(=O)(=O)C3CCCCC3)c(=O)c3ccccc32)c1	-11.3%	-12.7%
36	COc1ccc(-c2ccc(NS(=O)(=O)c3ccccc3)cc2)nn1	56.0%[activator]	0.0%
37	Cc1oc2c(c1C(=O)Nc1ccc(OC(F)(F)F)cc1)C1=NCCN1C=N2	-4.9%	-3.6%
38	CC1CCCCN1CCCNC(=O)Cn1ncc2c3ccccc3n(C)c2c1=O (stereo not given)	-10.2%	-4.9%
39	O=C(Nc1ccc(Cl)cc1Cl)c1ccc2ccccc2n1	173.0%[activator]	-5.3%
40	CCOC(=O)c1cc(N)ccc1N1CCOCC1	-1.1%	12.1%
41	OC(COc1ccc(Nc2ccccc2)cc1)COc1ccc(Nc2ccccc2)cc1	?	?
42	Cc1cc(S(=O)(=O)Nc2cccc(C(F)(F)F)c2)sc1C(=O)O	-3.6%	23.5%
43	CC1CCN(S(=O)(=O)c2ccc(-c3nc(C#N)c(NCCN4CCOCC4)o3)cc2)CC1	-7.7%	162.3%[activator]
44	COc1ccccc1-c1nc(SCC(=O)c2ccc(Cl)cc2)n[nH]1	0.0%	0.0%
45	COC(=O)C1=C(c2ccccc2)c2cc(Cl)ccc2S(=O)(=O)N1CC(=O)Nc1cccc(C)c1	-13.9%	11.5%
46	Cc1oc(-c2ccccc2)nc1CC(=O)N1CCC(N2CCCCC2)CC1	-1.1%	-3.1%
47	CCOC(=O)c1c(C)[nH]c(C)c1S(=O)(=O)N1CCN(c2cc(Cl)ccc2C)CC1	4.0%	99.7%[activator]
48	COc1c(N2C[C@@H]3CCCN[C@@H]3C2)c(F)cc2c(=O)c(C(=O)O)cn(C3CC3)c12	1.5%	13.9%
49	CCOC(=O)N1CCN(C(=O)CSc2nnc(-c3ccc(Cl)cc3)n2Cc2ccco2)CC1	-1.1%	3.7%
50	COc1ccc2c(COC(=O)c3ccccc3OCC3CCCO3)cc(=O)oc2c1 (stereo not given)	142.4%[activator]	17.7%
51	CCOc1ccccc1Nc1nnc(-c2cc3cc(Cl)ccc3oc2=O)s1	-3.1%	7.1%
52	OCCNc1nc(N2CCOCC2)nc2ccccc12	-11.4%	-8.3%
53	Cc1nc2ccn(Cc3cccs3)c(=O)c2cc1C(=O)NCc1ccc(Cl)cc1	-13.5%	135.5%[activator]
54	Cc1cc(C)cc(OCCSc2nc(-c3ccc(C(C)(C)C)cc3)nc3cc(=O)[nH]n23)c1	-13.9%	-13.5%
55	O=C(NCc1ccccc1Cl)C1CCN(S(=O)(=O)Cc2ccccc2)CC1	-12.1%	-11.6%
56	CCOc1ccc(Nc2cc(C(=O)NCc3ccccc3Cl)c3ccccc3n2)cc1	23.9%	-4.3%
57	COc1cccc(NC(=O)CN(C)C(C)C(=O)Nc2cc(Cl)ccc2OC)c1 (stereo not given)	-3.4%	2.0%
58	COc1cccc(-c2nc(CS(=O)(=O)CC(=O)NCc3cccnc3)c(C)o2)c1	1.8%	17.1%
59	Cc1c(Cc2ccccc2)c(=O)oc2c(C)c(OCC(=O)NC(C)C)ccc12	26.1%	0.0%
60	CC(C)=NNC(N)=S	0.0%	41.3%[activator]
61	Cc1cc(C(=O)CN2CCN(Cc3ccc4c(c3)CCO4)CC2)c(C)n1C1CCS(=O)(=O)C1 (stereo not given)	0.6%	-3.8%
62	FC(F)(F)c1cccc(/C=N/N=C(c2ccccc2)c2ccccc2)c1	0.0%	4.7%
63	CN(C)C(CNc1oc(-c2ccccc2F)nc1C#N)c1cccs1 (stereo not given)	36.4%[activator]	56.9%[activator]
64	CC(=O)Nc1ccc(NC(=O)c2csc(NCC(C)C)n2)cc1	25.1%	6.2%

# Other compounds:
No.	mol	StopGo FLuc	2A Renilla
65	COC(=O)CCNC(=O)c1cccc(C)c1	0.0%	4.6%
66	COc1cc(C(=O)Nc2ccc3c(c2)nc(CN2CCC(C)CC2)n3C(C)C)cc(OC)c1OC	-12.3%	-14.8%
67	CCN(CC)CCNC(=O)Cn1nc(C)c2c(C)n(-c3ccccc3)nc2c1=O	-8.7%	-10.0%
68	CCCCN1C(=O)c2[nH]nc(-c3ccccc3O)c2C1c1cccc(OCc2ccccc2)c1 (stereo not given)	-12.4%	11.8%
69	O=C(NCCc1csc(-c2ccc(C(F)(F)F)cc2)n1)c1ccc(F)c(F)c1	?	?
70	O=S(=O)(NCCc1ccccc1)c1ccc(N2CCCCS2(=O)=O)cc1	?	63.0%[activator]
71	O=C(CCc1nc2ccccc2s1)NCCc1ccccc1F	174.3%[activator]	17.8%
72	O=C(O)C(c1c[nH]c2ccc(CO)cc12)N1CCN(Cc2cccs2)CC1 (stereo not given)	10.2%	-0.6%
73	COC(=O)CSCc1nc(-c2ccc(C(=O)OC)cc2)oc1C	?	?
74	Cc1ccc(NC(=O)CN(C)C(=O)CCNS(=O)(=O)c2ccc(C)cc2)cc1	-4.2%	35.9%[activator]
75	O=C(Nc1ccc(C(=O)OCc2cc(=O)n3nc(C4CC4)sc3n2)cc1)c1ccccc1	-3.0%	8.0%
76	CCC(=O)c1ccc(OCC(=O)NCc2ccccc2CN2CCCC2)cc1	-9.8%	16.2%
77	CCN(CC)CCNC(=O)C(=O)Nc1cccc2ncccc12	1.2%	-4.7%
78	Cc1cc(C)c(CC(=O)O)c(C)c1	9.5%	11.0%
79	O=C(CSC1c2ccccc2Oc2ccccc21)Nc1cccc(C(=O)O)c1	6.6%	-2.4%
80	N#Cc1nc(-c2ccc(S(=O)(=O)N3CCOCC3)cc2)oc1NCc1ccc2c(c1)OCO2	-10.6%	-8.1%
81	O=C(CSc1n[nH]c(-c2ccccc2)n1)N1CCN(c2ccccc2F)CC1	-20.4%	70.4%[activator]
82	Cc1nc2ccccc2nc1SCC(=O)N1CCOCC1	8.0%	-5.5%
83	N#Cc1c(-n2ncnc2-c2ccc(Br)cc2)sc2c1CCCCC2	17.3%	-3.6%
84	Cn1c(=O)c2c(ncn2Cc2cccc(OC(F)F)c2)n(C)c1=O	?	?
85	CCOC(=O)c1c(NC(=O)CSc2cn(CCNC(=O)c3ccc(OC)cc3)c3ccccc23)sc2c1CCCC2	9.9%	-2.6%
86	Cc1cc(N)c(-n2cc3c(c2-c2ccc(Br)cc2)c(=O)n(C)c(=O)n3C)cc1C	141.2%[activator]	-3.4%
87	COc1ccc(-c2nnc(SCC(=O)Oc3cc(C)ccc3C)o2)cc1	-19.9%	0.4%
88	O=C(COC(=O)c1ccc2ccccc2n1)Nc1ccc(Cl)c(Cl)c1	2.4%	-16.1%
89	N#CC1(Br)C(=N)c2ccccc2CC12CCCCC2 (stereo not given)	23.5%	6.1%
90	CCOc1cc(CNCCSc2nnnn2C)ccc1OCc1ccc(Cl)cc1Cl	-15.8%	-3.8%
91	Cc1cc(C(=O)C(=O)Nc2nncs2)c(C)n1-c1ccc(Cl)cc1	25.5%	15.5%
92	COc1ccc(-n2[nH]c(-c3ccc(OC)c(OC)c3)cc2=O)cc1	-17.3%	-14.9%
93	COc1ccc(NC(=O)CSc2nnc(NC(=O)NC3CCCCC3)s2)cc1OC	130.4%[activator]	-7.2%
94	COc1ccc(-c2noc(CSc3nnc(-c4ccco4)n3C3CCCCC3)n2)c(OC)c1	?	-31.0%
95	CCOCCCN(Cc1ccco1)C(=O)c1cc2c(s1)-c1c(C)cccc1OC2	6.5%	80.6%[activator]
96	C/C(=N\NC(N)=S)c1ccc2c3c(cccc13)CC2	0.0%	-25.3%
97	Nc1nccnc1C(=O)NCc1ccc(COCC(F)(F)F)cc1	?	?
98	COCCCN1C(=O)N(c2ccccc2)C(=O)C1CC(=O)Nc1ccc(F)cc1 (stereo not given)	-7.4%	51.6%[activator]
99	CCOc1ccc(-c2nnc(SCC(=O)Nc3ccc(C)cc3C)o2)cc1	12.3%	-11.5%
100	Cc1ccc(C(=O)c2cn(Cc3ccc(Cl)cc3)c3nc(C)ccc3c2=O)cc1	-18.5%	-8.7%
101	Cc1ccc(F)cc1NC(=O)CCc1c(C)nn(-c2ccc(N3CCOCC3)nn2)c1C	62.4%[activator]	-6.6%
102	CCOC(=O)c1cnc2ccc(OC)cc2c1Nc1cccc(C(=O)O)c1	115.1%[activator]	107.1%[activator]
103	CCn1c(=O)n(CC)c2cc(N3CCCCC3)c(NC(=O)Nc3ccccc3Cl)cc21	-26.1%	27.0%
104	O=C(c1ccc2c(c1)N(Cc1ccc(F)cc1)C(=O)c1ccccc1S2(=O)=O)N1CCCCCC1	-0.1%	192.5%[activator]
105	N#Cc1cccnc1NCCCNc1ccccn1	64.8%[activator]	-1.8%
106	COc1cc(NC(=O)C2CCN(c3cnccn3)CC2)cc(OC)c1	-17.7%	-12.4%
107	CCCCNc1nc2c(c(=O)n(Cc3ccccc3)c(=O)n2C)n1C	-6.7%	-2.3%
108	COc1cccc(NC(=O)CSc2ncc(S(=O)(=O)c3ccc(C)c(C)c3)c(=O)[nH]2)c1	-2.6%	-7.4%
109	COCCNC(=O)CC(C)C1CCCCC1 (stereo not given)	-4.9%	3.7%
110	O=C(C1COc2cc(S(=O)(=O)Nc3ccc(F)cc3)ccc2O1)N1CCCCC1 (stereo not given)	-21.3%	94.9%[activator]
111	CC1=C(C(=O)Nc2cccc(C(F)(F)F)c2)C(c2ccc(Cl)cc2)n2ncnc2N1 (stereo not given)	-6.4%	-1.4%
